# Compound activity (PubChem)
# VDR inhibitor – inhibitors of human vitamin D receptor | P11473 | VDR-SRC2-3 peptide fluorescence polarization, 2 h | Potency, µM, inactives show max response, negative = inhibition, most hits filed as inhibitors | 0.93% of 400,000 active; active = well fitted inhibition curve with a large enough effect; inconclusive = small, poorly fitted or top-dose-only effect, or another doubt; inactive = no such curve, though single readings can be large or run the other way; also: series mostly up to about 120 µM
# Target sequence (P11473 whole entry, looked up): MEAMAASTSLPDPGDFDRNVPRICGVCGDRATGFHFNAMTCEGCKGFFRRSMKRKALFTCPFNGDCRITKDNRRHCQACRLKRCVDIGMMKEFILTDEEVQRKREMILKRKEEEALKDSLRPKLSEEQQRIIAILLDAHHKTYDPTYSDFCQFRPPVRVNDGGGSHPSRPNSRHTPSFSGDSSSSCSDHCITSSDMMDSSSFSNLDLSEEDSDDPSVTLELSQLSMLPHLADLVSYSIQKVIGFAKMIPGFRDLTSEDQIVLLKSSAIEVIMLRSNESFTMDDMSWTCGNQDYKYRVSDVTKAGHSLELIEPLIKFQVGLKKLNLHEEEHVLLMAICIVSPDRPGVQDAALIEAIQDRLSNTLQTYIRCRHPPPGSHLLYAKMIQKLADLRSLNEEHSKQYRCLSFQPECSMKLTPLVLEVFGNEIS
#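 The screen uses fluorescence polarization to detect compounds that interfere with recruitment of the SRC2-3 coactivator peptide to VDR; plates are read after 2 h at room temperature.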
# Numbers without * were called inactive; ? = inconclusive; & = joins results of further samples; [ ] = remark or other dose. % is scaled to controls: 0 for no effect and ±100 for the full control effect; potency is read from the fitted curve at half-maximal effect. These rows are one share of the data. The share of hits here may be higher or lower than overall.
# Start of the data: the first five entries, to show the layout:
SMILES,VDR inhibitor
COc1ccc(C(C(=O)NC(C)(C)C)N(C(=O)CCC(=O)Nc2cc(C)on2)c2c(C)cccc2C)cc1 (stereo not given),-4%
COc1ccc2nc3oc(C(=O)N4CC(C)CC(C)C4)cc3cc2c1 (stereo not given),-24%
CCOc1ccc(Nc2nc(C)c(NC(=O)c3cccc(F)c3)c(Nc3ccc(OCC)cc3)n2)cc1,-6%
COc1ccc(C(=O)O/N=C/c2ccc(S(=O)c3ccc(Cl)cc3)nc2)cc1 (stereo not given),5%
Cc1nc2cc(NC(=O)CS(=O)(=O)c3ccc(F)cc3)ccc2s1,-7%

# The listing (from the top)
SMILES,VDR inhibitor
COc1ccc(C(C(=O)NC(C)(C)C)N(C(=O)CCC(=O)Nc2cc(C)on2)c2c(C)cccc2C)cc1 (stereo not given),-4%
COc1ccc2nc3oc(C(=O)N4CC(C)CC(C)C4)cc3cc2c1 (stereo not given),-24%
CCOc1ccc(Nc2nc(C)c(NC(=O)c3cccc(F)c3)c(Nc3ccc(OCC)cc3)n2)cc1,-6%
COc1ccc(C(=O)O/N=C/c2ccc(S(=O)c3ccc(Cl)cc3)nc2)cc1 (stereo not given),5%
Cc1nc2cc(NC(=O)CS(=O)(=O)c3ccc(F)cc3)ccc2s1,-7%
O=C(O)c1cccnc1SCC(=O)N1CCCCCC1,8%
CC(=O)C1C(=O)C=C(c2ccco2)CC1c1ccccc1 (stereo not given),-1%
CC[C@H](C)[C@@H](NC(=O)O[C@@H]1C(=O)c2cc(OC)ccc2O[C@H]1c1ccc(OC)c(Br)c1)C(=O)OC,-9%&-4%
Cn1c(=O)c(-c2cc(F)cc(F)c2)nc2cnc(Oc3ccccc3)nc21,-9%
O=C(CCN1C(=O)/C(=C/c2ccc(F)cc2)SC1=S)NNC(=O)c1cccnc1,-27%
O=C(c1cccc(F)c1)N1CCc2ccccc2C1,1%
Cc1cc(OC(=O)c2ccccc2Cl)c([N+](=O)[O-])c(=O)[nH]1,7%
CCCCN(CC)CCNC(=O)c1c(C)oc2ncnc(N3CCOCC3)c12,3%
COc1cc(OC)c(-c2cc(C(=O)O)ccc2OC)c(OC)c1,-11%
O=C(O)CN1C(=O)/C(=C/c2ccc(N3CCCCC3)o2)SC1=S,?
CCOc1ccc(CNC(=O)c2cc3oc4ccccc4c3n2C)cc1,-3%&-4%
COCCNC(=O)c1c(NC(=O)c2cc(=O)c3cc(C)cc(C)c3o2)sc2c1CCCC2,-5%
COc1ccc(N2CC(C(=O)N3CCN(C(=O)c4ccco4)CC3)CC2=O)cc1 (stereo not given),-23%
CCOC(=O)CSc1nc2sc3c(c2c(=O)n1C1CCCCC1)CCN(C)C3,-3%
CCOc1ccc(S(=O)(=O)N(CC)CC(=O)NCc2ccncc2)cc1C,6%
O=c1[nH]c2c(s1)C(c1ccccc1)C1C3CCC(C3)C1S2 (stereo not given),-6%
O=C(NC1CC2CCC(C1)N2Cc1ccccc1)c1ccccc1Br (stereo not given),15%
CCOC(=O)c1sc(N)nc1C(C)(C)C,-22%
Cc1cccc(NC(=O)CSc2nc(-c3ccco3)cc(C(F)(F)F)n2)c1C,-20%
Cc1nc(NCCc2ccccc2)c2oc3ccccc3c2n1,-4%
CCn1c(COc2ccc(=O)n(-c3ccccc3)n2)n[nH]c1=S,-11%
Cc1csc(=O)n1CCC(=O)OCc1nnc(-c2ccccc2Cl)o1,1%
CON(C)S(=O)(=O)c1cccc(C(=O)Nc2ccc(S(=O)(=O)NC3=NCCCCC3)cc2)c1,-10%
CCN(CCCNC(=O)C1CCC(=O)N1Cc1ccc(C)cc1)c1cccc(C)c1 (stereo not given),6%
O=C(NC1CCCc2ccccc21)c1cn2ccccc2n1 (stereo not given),-2%
CN(C)c1nc(OCCOC(=O)c2ccccc2)nc(N(C)C)n1,9%
O=C(Nc1ccccc1C(=O)N1CCCC1)c1ccc(Cl)cc1Cl,0%
CC(C)n1cc(C(=O)c2cc(Br)ccc2O)cc(C#N)c1=O,-21%
CCOc1ccc(N/C(N)=N/c2nc(CSc3nnc(C)s3)cc(=O)[nH]2)cc1,-5%
CCOc1ccc(CCNC(=O)c2ccc3c(c2)N(Cc2cccc(Cl)c2)C(=O)c2ccccc2S3(=O)=O)cc1OCC,13%
CC(Nc1ncnc2nc[nH]c12)c1ccccc1 (stereo not given),-10%
CCOc1ccc(NC(=O)CN2C(C(=O)OC)=C(c3ccccc3)c3cc(Cl)ccc3S2(=O)=O)cc1,-20%
O=C(CSC1=NS(=O)(=O)c2ccccc21)Nc1ccccc1,16µM*
CC1CN(C(=O)CSc2nnc(-c3cccs3)n2N)CC(C)O1 (stereo not given),-9%
CC(NC(=O)C(C)N1C(=O)c2cccc([N+](=O)[O-])c2C1=O)c1ccccc1 (stereo not given),-1%
Cc1ccc(C(=O)NC(NC(=O)c2ccc(C)cc2)c2cccc([N+](=O)[O-])c2)cc1,1%
CCOc1ccc(C2/C(=C(/O)c3ccc4c(c3)CC(C)O4)C(=O)C(=O)N2CCCn2ccnc2)cc1OCC (stereo not given),1%
Cc1ccc(S(=O)(=O)Nc2ccc(C(=O)N3CCCC3)cc2)cc1,5%
O=C(Nc1cccc(F)c1)Nc1cnccn1,52%[activator]
COc1cccc(-c2nc(SCC(=O)Nc3ccc4c(c3)OCCO4)c(-c3ccc(C)cc3)[nH]2)c1,-1%
Cc1ccccc1Nc1c(C)c(C)nc2ncnn12,2%
Cc1onc(-c2c(Cl)cccc2Cl)c1COC(=O)c1ccc([N+](=O)[O-])cc1,1%
Cc1cccc(CN2CCN(C(=S)Nc3ccccc3)CC2)c1,-1%

# Compounds from the list above containing bromine (3):
SMILES,VDR inhibitor
CC[C@H](C)[C@@H](NC(=O)O[C@@H]1C(=O)c2cc(OC)ccc2O[C@H]1c1ccc(OC)c(Br)c1)C(=O)OC,-9%&-4%
O=C(NC1CC2CCC(C1)N2Cc1ccccc1)c1ccccc1Br (stereo not given),15%
CC(C)n1cc(C(=O)c2cc(Br)ccc2O)cc(C#N)c1=O,-21%

# (continued)
SMILES,VDR inhibitor
COCCn1c(N)c(N(Cc2ccccc2)C(=O)c2ccc(N3CCCC3=O)cc2)c(=O)[nH]c1=O,1%
CCn1c(SCC(=O)NCc2ccco2)nc2cccnc21,0%
COc1cc(C(=O)NCc2nc(C)cs2)ccc1OC1CCN(C(C)=O)CC1,-12%
Cc1ccc2c(C(=O)CN3CCSCC3)c(C)[nH]c2c1,-22%
Cc1onc(-c2ccccc2Cl)c1C(=O)N1CCCCC1C(=O)O (stereo not given),0%
Cc1nn(C)cc1/C=N/NC(=S)Nc1ccc(Cl)cc1Cl,-22%
O=C(Nc1cc(S(=O)(=O)N2CCOCC2)ccc1N1CCCC1)c1ccc2c(c1)S(=O)(=O)c1ccccc1C2=O,45µM*
O=[N+]([O-])c1ccccc1/C=C/C=N/Nc1ccc(S(=O)(=O)Nc2ccc(Cl)cc2)cc1[N+](=O)[O-],5%
Nc1ccccc1C(=O)Nc1nccs1,3%
COc1ccccc1-n1ccnc(SCC(=O)NCc2ccccc2Cl)c1=O,-7%
O=C(NCc1cccc(C(F)(F)F)c1)c1cccc(Cl)c1Cl,-34%
Clc1c(OCCCn2ccnc2)ccc2ccccc12,?
CC(C)CCNC(=O)CO/N=C/c1ccccc1OC(F)F,-12%
CCN1CCN(C(=O)c2cc3sccc3n2CC(=O)c2ccccc2)CC1,3%
CCOC(=O)N(O)c1ccc(C=Cc2ccccc2)cc1,-11%
CCCc1nn2c(=O)cc(CSCC(=O)Nc3ccc(OC)cc3)nc2s1,-1%
CCN(CC)c1ccc([N+](=O)[O-])cc1/C=N/NC(=O)CC#N,4%
COCc1c(C(=O)N2CCN(S(=O)(=O)c3ccccc3Cl)CC2)oc2ccccc12,-5%
CCN(CC)C(=O)CSc1nnc(SC(C)C(=O)NC2CC2)s1 (stereo not given),-10%
COc1ccccc1N1CCN(CCCNC(=O)c2nnc(Cc3c(F)cccc3Cl)o2)CC1,4%
Cc1ccc2c(c1)c1c(c(=O)n(-c3cccc(Cl)c3)c(=O)n1CC(N)=O)n2C,12%
Cc1ccc(CNC(=O)CS(=O)(=O)c2cccc3nsnc23)cc1,0%
Cc1ccc(-c2ccc(=O)n(CC(=O)NCCCN3CCCCC3)n2)cc1,8%
O=[N+]([O-])c1ccc(-c2cnc(SC(c3ccccc3)c3ccccc3)[nH]2)cc1,-12%
COc1ccc(CCNC(=O)CN(C)S(=O)(=O)c2cccs2)cc1,-12%
Cc1ccc2c(=O)cc(C(=O)Nc3ccc(S(=O)(=O)Nc4ncccn4)cc3)oc2c1C,19%
CCCCCCCNC(=O)C1(CC2CC(c3cccc(Br)c3)=NO2)CCNCC1 (stereo not given),-7%
N#CC1=C(N)N(c2cccc(Cl)c2)C2=C(C(=O)CCC2)C1c1cc(CN2CCOCC2)cs1 (stereo not given),-22%
COc1ccc(NC(=O)CS(=O)(=O)c2ccccc2Cl)cc1,1%
O=C(Nn1c(SCc2ccc(F)cc2)nc2ccsc2c1=O)c1ccccc1,-9%
COc1ccc(NC(=O)C2C3C=CC(O3)C2C(=O)O)cc1 (stereo not given),-7%
COCCNC(=O)C(c1ccncc1)N(C(=O)c1sc(C)nc1C)c1cccc(C)c1 (stereo not given),2%
Cc1ccc(C(=O)N/N=C/C=C/c2ccccc2)o1,-18%
Cc1ccc(CNC(=O)C(=O)NCC2OCCN2C(=O)c2ccc3c(c2)OCO3)cc1 (stereo not given),8%
COC(=O)c1ccccc1NC(=O)CN(C)S(=O)(=O)c1ccc(OC)cc1,1%
CCOc1cc(C(=S)N2CCOCC2)ccc1OS(=O)(=O)c1ccc(C)cc1,-7%

# Two compounds picked at random from those above:
SMILES,VDR inhibitor
Cc1ccc2c(=O)cc(C(=O)Nc3ccc(S(=O)(=O)Nc4ncccn4)cc3)oc2c1C,19%
Cc1ccc(CNC(=O)C(=O)NCC2OCCN2C(=O)c2ccc3c(c2)OCO3)cc1 (stereo not given),8%

# Next section
SMILES,VDR inhibitor
COc1ccc(C(=O)N=c2sccn2C)cc1,8%
O=C(NCc1nc2ccccc2[nH]1)C1=C[C@H](C2CCCCC2)C[C@H](OCCCCO)O1,-4%
CCOC(=O)c1sc(NC(=O)c2ccc(S(=O)(=O)N3CCOCC3)cc2)nc1-c1ccccc1,3%
CCCn1c2ccc(F)cc2c2nnc(SCCN3CCCCC3)nc21,12%&0%
CCCCN(C(=O)NC(=O)Nc1cccc(C)c1C)S(C)(=O)=O,3%
COCCNC(=O)/C=C/c1c(Cl)cccc1Cl,3%
CCCC(=O)Nc1cccc2c1CCCC2,4%
CC(=O)Oc1ccccc1N(C(C)=O)S(=O)(=O)c1ccc2ccccc2c1,-19%
CC(C)(C)c1ccc(NC(=O)c2ccsc2)cc1,0%
COc1ccc(CNC(=O)CSc2nnc3nc(C)cc(C)n23)cc1OC,0%
Cn1c(=O)n(Cc2ccccc2F)c(=O)c2c1nc1n2CCN1Cc1ccco1,4%
O=c1c(Cc2ccc(F)cc2)c(O)ccn1CCc1cnc[nH]1,2%
O=C(NCCC1CCCCN1S(=O)(=O)c1ccccc1)C(=O)NCc1ccccc1 (stereo not given),0%
c1ccc2cc(CCO[C@H]3CCCCO3)ncc2c1,-14%
CC1CCCCC1NC(=O)CCc1nc2sc3c(c2c(=O)[nH]1)CCCC3 (stereo not given),26%
CC1(C)CC(NC(=S)Nc2ccc(S(N)(=O)=O)cc2)CC(C)(C)N1,10%
COc1ccc(Cc2nc3ccc(S(=O)(=O)N4CCOCC4)cc3[nH]2)cc1OC,0%
CCOC(=O)Cc1csc(SC(C)C(=O)NC2CCCCC2C)n1 (stereo not given),-23%
CCC(Sc1nc2nccnc2c(=O)n1Cc1ccc(F)cc1)C(=O)NC1CCCCC1 (stereo not given),2%
O=C(CN1C(=O)c2cccc3cccc1c23)N1CCN(Cc2ccc3c(c2)OCO3)CC1,16%
O=C(NN1c2ccccc2CCc2ccccc21)c1ccccc1Br,-4%
CCOC(=O)N1CCC(N2C(=O)c3ccccc3C2Nc2ccc3c(c2)OCCO3)CC1 (stereo not given),-19%
CCOc1ccc(S(=O)(=O)N(CC(=O)NCCSc2ccc(C)cc2)c2ccccc2)cc1,-26%
CCOC(=O)Nc1ccc(S(=O)(=O)Nc2cc(C)nc(C)n2)cc1,11%
CCOc1ccc(NC(=O)c2cn3c4c(ccc(Cl)c4c2=O)OC(C)C3)cc1 (stereo not given),2%
Cc1onc(-c2ccc(Cl)cc2Cl)c1C(=O)/C=C/N(C)C,0%
O=C(CSc1nccc(-c2ccc(Br)cc2)n1)NCCc1ccccc1,-3%
NC(=O)c1cnn(-c2cc(Oc3ccccc3)ncn2)c1N,-3%
Cc1c(C(=O)N2CCN(CCc3ccccn3)CC2)oc2ccc(F)cc12,-26%
O=c1[nH]c2ccc(NCc3ccc(-c4cccc(Cl)c4)o3)cc2[nH]1,-6%
Cc1ccc(-c2c(C#N)c(N)nc3c2CCCCCC3)o1,6%
O=C(C1CCN(Cc2ccc(F)cc2)CC1)N(CCO)Cc1ccccc1,11%
O=C(CSc1cccc2cccnc12)Nc1ccccc1F,-7%
COc1ccc(C(CCN2CCCC(C)C2)c2c(OC)cc(OC)c3c2OC(=O)CC3c2cc(OC)c(OC)c(OC)c2)cc1 (stereo not given),-4%&6%
O=C(NC1CC1)C1CCN(c2ccc(S(=O)(=O)N3CCOCC3)cc2Cl)CC1,18%
COc1ccc([C@@H]2C[C@@H](c3ccccc3)Oc3cc(OC)c(OC)c(OC)c32)cc1,5%
Clc1ccc(CSc2nnc(/C=C/c3ccccc3)o2)cc1,-5%
CCn1cnc2c1c(=O)n(Cc1cccc([N+](=O)[O-])c1)c(=O)n2Cc1ccccc1,0%
Cc1ccc(S(=O)(=O)N2CCN(C(=O)c3cc(=O)[nH]c4ccccc34)CC2)c(C)c1,12%
CC(=O)c1ccccc1NC(=O)c1ccc2c(c1)NC(=O)C(C)S2 (stereo not given),-12%
COC(=O)c1ccc(CCc2cc(O)c(Br)cc2O)cc1,-6%
CC1(C)Cc2c(c(=S)nc(-c3ccccc3)n2CCOCCO)CO1,0%
Cc1nc(N2CCCC2)c2c(C(=O)N3CCN(c4cc(Cl)ccc4C)CC3)c(C)oc2n1,-2%
CC(=O)Nc1ccc2[nH]c(C)c(CC=C(Cl)Cl)c(=O)c2c1,11%
